gsp ag: qHTS for Agonist of gsp, the Etiologic Mutation Responsible for Fibrous Dysplasia/McCune-Albright Syndrome: qHTS; gsp mutant cells, cAMP HTRF, 30 min; control for the full effect not named in the record; Potency, µM (top dose mostly 76.9 µM), for the others: top-dose activation (cAMP increase), actives largely listed as activators; 0.13% of 340,000 active; active = well fitted activation curve with a large enough effect; inconclusive = small, poorly fitted or top-dose-only effect, or another doubt; inactive = no such curve, though single readings can be large or run the other way; cell line not stated here;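 also: phosphodiesterase inhibitor Ro 20-1724 added with compounds to block cAMP breakdown; potency is read from the fitted curve at half-maximal effect; nearly all actives have a fitted effect of over 60% in size; about a fifth of the inactives were tested at one dose only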
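Cells in DMEM/10% FBS with G418 were pretreated with compounds in DMSO plus […] (300 uM stock) for 30 min at 37C. cAMP was measured by HTRF (cAMP-d2 plus anti-cAMP antibody-K) after 30 min at room temperature.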
Menin MLL FP FL: qHTS Assay for Inhibitors Targeting the Menin-MLL Interaction in MLL Related Leukemias: Competition With Fluorescein Labeled MLL-derived Peptide; AID 1766, 2009; Fluorescence polarization, fluorescein-MLL peptide displacement from menin; 290,000 tested, under 10 active; FP activity change, % at 61.4 µM; inconclusive = falling polarisation curve, or a change in total fluorescence; inactive = total fluorescence flat and polarisation flat or rising; no compound was filed as active; the % refers to the polarisation; negative = inhibition;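 also: % of control where 0% means no effect; inhibitors lower the polarisation; unlabelled MLL peptide was the positive control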
TRPV1 potentiator: HTS Assay for Compounds that Act as Potentiators of the Vanilloid Receptor 1; TRPV1-expressing cells, Fluo-8 calcium influx, capsaicin EC20 potentiation; host cell line not named in the record; control for the full effect not named in the record; Transient receptor potential cation channel subfamily V member 1 (Homo sapiens), Q8NER1; potentiation, % at 8.33 µM; 0.02% of 320,000 active; active means potentiation above 80%; inconclusive means 30% to 80%; inactive means below 30%; also: 0% is about no effect
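Cells expressing TRPV1 were dye-loaded with Fluo-8 and read kinetically: 10 s baseline, 3 min after compound (agonist portion), then 2 min after EC20 capsaicin (allosteric enhancer portion). Calcium-bound dye fluorescence at 480/520 nm.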
ClpP mod: qHTS Assay for Activators of ClpP; Potency, µM (titrated, usually from 57.5 µM), inactives show at the top dose activity change, negative = active; 1.9% of 340,000 active; AID 651965, 2013; ATP-dependent Clp protease proteolytic subunit (Bacillus subtilis (strain 168)), P80244; purified B. subtilis ClpP, FRET peptide cleavage, 20 min; active = well fitted falling curve with a large enough effect; inconclusive = small, poorly fitted or top-dose-only effect; inactive = no such curve, though single readings can be large or run the other way; also: potency is read from the fitted curve at half-maximal effect; the source files actives as falling curves though it sought activators and does not explain the sign; nearly all actives have a fitted effect of over 65% in size; many hits overshoot -100%
Target sequence (P80244 whole entry, looked up): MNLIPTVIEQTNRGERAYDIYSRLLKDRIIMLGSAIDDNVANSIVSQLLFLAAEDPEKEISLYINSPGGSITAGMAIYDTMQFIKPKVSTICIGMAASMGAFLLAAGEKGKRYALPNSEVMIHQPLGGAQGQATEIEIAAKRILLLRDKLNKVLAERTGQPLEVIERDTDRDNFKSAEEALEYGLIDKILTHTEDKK
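FRET quenching reversal measured ClpP activation: 10 microg/mL B. subtilis ClpP at pH 8 with the FRET-FV decapeptide, read at 430 nm after 320 nm excitation. The 20-min minus 0-min signal was scaled between DMSO/no-enzyme wells and ADEP (5.8 microM final).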
Sfp inh: qHTS Assay for Inhibitors of Bacillus subtilis Sfp phosphopantetheinyl transferase (PPTase); 4'-phosphopantetheinyl transferase ffp (Bacillus subtilis), Q9F4F7; Biochemical Sfp PPTase activity, qHTS; Potency, µM, inactives show max response, negative = inhibition, actives largely listed as inhibitors; 3.5% of 310,000 active; AID 1490, 2009; active = well fitted inhibition curve with a large enough effect; inconclusive = small, poorly fitted or top-dose-only effect, or another doubt; inactive = no such curve, though single readings can be large or run the other way;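 also: the enzyme is Sfp with the accession as filed and its product quenches rhodamine fluorescence; potency is read from the fitted curve at half-maximal effect; 0% = enzyme reaction without inhibitor and -100% = no enzyme wells; top concentration of the series not given in the record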
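Fluorescence-quenching assay: 15 nM Sfp-PPTase preincubated 15 min at room temperature with compound, then 5 uM rhodamine-CoA and 12.5 uM BHQ-2-labelled YbbR peptide added. Fluorescence (ex 525/em 598 nm) read at start and after 30 min; difference gives rate.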
gsp antag: qHTS for Antagonists of gsp, the Etiologic Mutation Responsible for Fibrous Dysplasia/McCune-Albright Syndrome: qHTS | 0.4% of 340,000 active | gsp-mutant cells, cAMP HTRF, 30 min; control for the full effect not named in the record | Potency, µM (doses to about 76.9 µM), for inactives: at the highest dose activity change, negative = inhibition, actives largely listed as inhibitors; active = falling curve of any shape with a large fitted effect; inconclusive = falling curve, mostly with a smaller effect; inactive = flat or rising curve; cell line not stated here;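 also: intracellular cAMP measured with PDE inhibitor Ro 20-1724 present during compound exposure; potency is read from the fitted curve at half-maximal effect; % is scaled to controls: 0 for no effect and ±100 for the full control effect; nearly all actives have a fitted effect of over 65% in size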
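HTRF cAMP measurement after 30 min RT detection following 30 min, 37C compound treatment alongside […] (added as 300 uM solution) in G418-selected cells seeded at 2000/well and grown 16–24 h.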
D2 PAM: Beta-Arrestin HTS for Positive Allosteric Modulators of the Human D2 Dopamine Receptor: Potentiators; D(2) dopamine receptor (Homo sapiens), P14416; DiscoveRx D2 beta-arrestin cells, luminescence, 90 min; 100% = 57 uM dopamine signal; potentiation, % (no concentration beside the values); 0.23% of 360,000 active; active = potentiation of 50% or more; inconclusive = 30% to 50%; inactive = 30% or less;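 also: compound concentration not given in the record; tested on top of an EC20 dose of dopamine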
Target sequence (P14416 whole entry, looked up): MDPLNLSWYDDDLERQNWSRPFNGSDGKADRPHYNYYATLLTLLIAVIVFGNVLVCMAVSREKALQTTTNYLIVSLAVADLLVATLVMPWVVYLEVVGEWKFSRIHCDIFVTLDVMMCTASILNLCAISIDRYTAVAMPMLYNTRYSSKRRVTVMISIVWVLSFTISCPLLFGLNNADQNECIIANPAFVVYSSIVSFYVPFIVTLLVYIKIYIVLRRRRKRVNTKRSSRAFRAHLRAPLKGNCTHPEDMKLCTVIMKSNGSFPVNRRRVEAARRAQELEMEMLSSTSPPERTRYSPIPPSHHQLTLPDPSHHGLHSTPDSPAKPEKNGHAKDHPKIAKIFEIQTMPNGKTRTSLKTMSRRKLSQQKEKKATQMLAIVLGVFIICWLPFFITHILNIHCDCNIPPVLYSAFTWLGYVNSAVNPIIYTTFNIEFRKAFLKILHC
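PathHunter D2 cells, attached overnight at 37 deg C, received compound in DMSO plus dopamine at EC20 (50 nM final) for 90 min at 37 deg C. Beta-arrestin recruitment was read as luminescence after 1 h with detection reagent at ambient temperature.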
Numbers without * were called inactive; u = inconclusive; x = no result given; & = joins results of further samples; [ ] = dose if it differs, or a comment.

entry	smiles	gsp ag	Menin MLL FP FL	TRPV1 potentiator	ClpP mod	Sfp inh	gsp antag	D2 PAM
1	N/C(=N\OC(=O)c1ccc(Cl)cc1Cl)c1ccccc1	4%	1.5	11	-2.1%	-12%	2%	u
2	Cc1ccc(NC(=O)C(C)Sc2nc(=O)cc(N)n2-c2ccccc2)cc1 (stereo not given)	-14%	2.9	8	-3.4%&-0.9%	14%	2%	-10
3	COc1ccc(OC)c(C(=O)NC(CC(N)=O)c2ccc(NC(C)C)c([N+](=O)[O-])c2)c1 (stereo not given)	x	-8.7	-16	-18%	13%	-1%	-8
4	O=C(CN1CCCCC1)NC(=O)NCc1ccccc1	-16%	0.6	-3	0.6%	8%	16%	14
5	CC(OC(=O)CCC(=O)c1cccs1)C(=O)Nc1ccccc1[N+](=O)[O-] (stereo not given)	-10%	0.4	6	x	0%	4%	1
6	COc1ccccc1NC(=O)CSc1nccn1Cc1ccccc1	-31%[inhibitor]	-0.6	-3	1.0%	15%	-4%	-25
7	Cc1ccc(/C=N/N2CCN(Cc3ccccc3)CC2)cc1	-25%	0.6	-5	x	8%	5%	-12
8	CC(=O)c1c(C)[nH]c(C(=O)Nc2ccc(Cl)c(S(=O)(=O)N(C)C)c2)c1C	-84%[inhibitor]	0.5	-4	-0.2%	u	-21%	-1
9	O=C(C1=C[C@H](c2csc3ccccc23)C[C@H](OCc2ccc(CO)cc2)O1)N1CCN(Cc2ccc3c(c2)OCO3)CC1	x	1.1	17	-0.5%	6%	-17%	-12
10	O=C(NC1CC1)c1ccc(CS(=O)c2ccc(Br)cc2)o1 (stereo not given)	-12%	0.3	-1	0.9%	12%	2%	-6
11	CC(C)(CNC(=O)c1ccc(-c2cccc(C(F)(F)F)c2)o1)N1CCOCC1	0%	x	-2	11%	x	-1%	-31
12	O=C(N/N=C/c1ccoc1)c1cccc([N+](=O)[O-])c1	-59%[inhibitor]	x	-4	1.8%	7%	4%	-11
13	CCOC(=O)c1nnn(-c2nonc2-n2cccc2)c1CN1CCC(C(=O)OCC)CC1	13%	1.1	-12	0.9%	7%	u	-10
14	O=C(CN1C(=O)C2CC=C(Cl)CC2C1=O)Nc1ccc(C(=O)O)cc1 (stereo not given)	5%	-0.2	-8	-2.1%	-13%	5%	1
15	O=C(Nc1nc2n(n1)C(c1ccccc1)C=C(c1ccccc1)N2)c1ccco1 (stereo not given)	-81%[inhibitor]	u	-2	-4.3%	56µM*	4%	0
16	CC(=O)C(=Cc1cc(C)n(-c2ccccc2)c1C)C(C)=O	10%[15.4 µM]	-14	-4	x	5%	1%	0
17	O=C1Cc2cc(S(=O)(=O)N3CCCCC3)ccc2N1	u	5.1	3	14%	16%	5%	-9
18	Cc1ccc(C#N)c(SCc2cc3c(cc2Cl)OCO3)n1	12%	-1.0	-9	-6.8%	8%	8%	-10
19	CCOc1cc(C(=S)N2CCCC2)ccc1OC	-2%[15.4 µM]	-2.3	2	0.6%	9%	15%	-2
20	CCN(CC)CCNC(=O)c1cc2c(s1)-c1ccccc1SC2	u	0.3	-4	u	6%	-1%	-23
21	COc1cc(CCCN2CCNC[C@@H]2C(C)O)cc(OC)c1OC (stereo not given in full)	x	x	22	1.5%	x	8%	-5
22	Nc1ccccc1S(N)(=O)=O	x	-4.6[24.8 µM]	2	1.9%	19%	1%	-1
23	O=C(O)Cn1c(-c2ccccn2)nc2ccccc21	u	-2.2	2	3.9%	-3%	7%	-20
24	O=c1[nH]c(Cc2ccccc2)nc2c1oc1ccccc12	-53%[inhibitor]	1.4	10	1.9%	5%	11%	-12

Sorted by the number under Sfp inh (smallest number first): three from the list above.
No. | Structure | Sfp inh
18 | Cc1ccc(C#N)c(SCc2cc3c(cc2Cl)OCO3)n1 | 8%
19 | CCOc1cc(C(=S)N2CCCC2)ccc1OC | 9%
22 | Nc1ccccc1S(N)(=O)=O | 19%

The listing continues.
entry	smiles	gsp ag	Menin MLL FP FL	TRPV1 potentiator	ClpP mod	Sfp inh	gsp antag	D2 PAM
25	O=C(CC12CC3CC(CC(C3)C1)C2)N1CCCOC1	3%	1.8	-3	1.1%	9%	-2%	-2
26	COC(=O)NNC(=O)COc1ccccc1C	u	4.2	-1	0.8%	7%	23%	-12
27	O=C(C[C@H]1C/C=C\C[C@H](NC(=O)OCC2c3ccccc3-c3ccccc32)C(=O)OC[C@@H]2CCCN2C1=O)N[C@H](CO)Cc1ccccc1	-2%	x	x	-3.2%	x	6%	-12
28	CCOc1ccc(S(=O)(=O)N2CCC(C(=O)NCc3ccccn3)CC2)cc1C	-2%[15.4 µM]	1.0	3	x	-3%	4%	0
29	N/C(Cc1ccccc1)=N\OC(=O)c1cccc2ccccc12	0%[15.4 µM]	0.5	-3	x	7%	5%	u
30	O=C(O)c1cccc(NC(=O)c2cn(-c3ccccc3)nc2-c2cccc(Br)c2)c1	2%[15.4 µM]	4.0	19	-0.8%	29%	u	6
31	Cc1cc(Cl)c(S(=O)(=O)N(C)C)cc1OCC(N)=O	18%	-1.5	-5	0.7%	9%	11%	-24
32	O=C(O)CCCCCCCCCCP(=O)(c1ccccc1)c1ccccc1	16%[15.4 µM]	-2.0	-2	x	26%	-22%	5
33	COc1ccccc1Cn1c(=O)c2ccccc2n2c(Sc3ncnc4sccc34)nnc12	21%	6.0	-2	-1.5%	-12%	-1%	-8
34	CCc1ccc(NC(=O)C(=O)NCC(O)c2ccccc2)cc1 (stereo not given)	-8%	5.4	u	-1.5%	-4%	2%	-10
35	O=C(CS(=O)(=O)Cc1ccccc1)N1CCN(c2cccc(C(F)(F)F)c2)CC1	u	5.5	-11	0.9%	7%	-25%	-24
36	CNc1nc(C)c(C(=O)OCc2ccccc2)s1	-22%	2.1	-1	-0.7%	1%	-17%	6
37	O=C(Cc1ncc(C(F)(F)F)cc1Cl)Nc1cccc(Br)c1	-3%	0.6	-23	-1.2%	0%	-11%	-2
38	CC(=O)OC(C(=O)NCCN1CCOCC1)c1c(F)cccc1F (stereo not given)	-1%	0.0	0	-3.0%	12%	-2%	-10
39	CC(=O)c1ccc(OCc2cc(C(=O)NCC3CCCCO3)no2)cc1 (stereo not given)	-33%	4.5	1	1.8%	19%	-14%	-9
40	COc1ccc(C/C(N)=N/OC(=O)c2cccc([N+](=O)[O-])c2)cc1	-2%[15.4 µM]	-0.4	1	-15%	-3%	2%	51*
41	CC(OC(=O)C1CC(=O)N(Cc2ccccc2)C1)C(=O)Nc1cccc(C#N)c1 (stereo not given)	-29%	x	-16	1.7%	10%	-9%	4
42	Cc1ccc(OC(F)F)c(NC(=O)Nc2cccc(C(F)(F)F)c2)c1	-1%	16	10	-1.9%	27%	35µM*	2
43	Cc1cc(NC(=O)c2c(Br)c(C)nn2C)no1	11%	-1.6	-2	-2.8%	9%	7%	-6
44	NS(=O)(=O)c1ccc(NC(=O)CSc2n[nH]c(=O)n2Cc2ccccc2)cc1	3%	5.3	-3	x	8%	11%	3
45	COc1ccc(N(CC(=O)N/N=C/c2cccs2)S(=O)(=O)c2ccccc2)cc1	1%[15.4 µM]	-2.5	-3	x	7%	-15%	-9
46	COc1cc(C(=O)N2CCCN(C)CC2)cc(OC)c1C	12%	-2.9	5	-1.0%	1%	-5%	-8
47	CC1(c2nnc(-c3ccncc3)o2)CC(c2c(Cl)cccc2Cl)=NO1 (stereo not given)	x	-1.4	-18	-25%	0%	0%	-5
48	O=C1NC(c2ccncc2)C(C(=O)c2cccs2)C(O)(C(F)(F)F)N1 (stereo not given)	37%	0.8	-10	-0.7%	u	10%	-24
49	CCN(CC)CCOC(=O)c1ccc(N=CC2=C(O)CC(C)(C)CC2=O)cc1	-2%	x	x	-16%	x	16%	-14
50	C/C(=C\c1ccco1)C1C(C#N)=C(N)Oc2n[nH]c(-c3ccc(C)cc3)c21 (stereo not given)	-56%[inhibitor]	11	-3	0.4%	u	0%	4
51	Cc1ccc(S(=O)(=O)N(C)c2c(C)ccc(S(N)(=O)=O)c2C)cc1	3%[15.4 µM]	-0.1	16	-13%	12%	9%	-11
52	Cc1noc(C)c1C(=O)NC(C)C12CC3CC(CC(C3)C1)C2 (stereo not given)	-31%[inhibitor]	0.6	-8	-1.0%	9%	2%	1
53	O=C(COC(=O)c1ccccn1)Nc1ccc2c(c1)OCCO2	-6%	x	x	0.9%	x	1%	5
54	Cc1ccc(S(=O)(=O)N2CCC3(CC2)OCCN3S(=O)(=O)c2cccs2)cc1	2%[15.4 µM]	x	-1	-0.2%	x	4%	-2
55	COc1ccc(NC2=C3CC(C)CC=C3N(c3ccc(OC)cc3)C2=O)cc1 (stereo not given)	-5%[15.4 µM]	-4.7	u	x	7%	-16%	-5
56	CCc1ccc(C(=O)NNC(=O)CN2C(=O)NC3(CCCC3)C2=O)cc1	-4%	x	-13	1.9%	x	12%	2

Arranged by molecular weight (smallest number first): 3 of the compounds above
entry	smiles	gsp ag	Menin MLL FP FL	TRPV1 potentiator	ClpP mod	Sfp inh	gsp antag	D2 PAM
53	O=C(COC(=O)c1ccccn1)Nc1ccc2c(c1)OCCO2	-6%	x	x	0.9%	x	1%	5
49	CCN(CC)CCOC(=O)c1ccc(N=CC2=C(O)CC(C)(C)CC2=O)cc1	-2%	x	x	-16%	x	16%	-14
54	Cc1ccc(S(=O)(=O)N2CCC3(CC2)OCCN3S(=O)(=O)c2cccs2)cc1	2%[15.4 µM]	x	-1	-0.2%	x	4%	-2

Screening results from PubChem BioAssay.

Rows are unselected; overall some 5.1% were active at least once.
